VDR inhibitor = inhibitors of human vitamin D receptor; P11473; Potency, µM, for inactives: max response, negative = inhibition, most hits filed as inhibitors; hit rate 0.93% among 400,000; VDR-SRC2-3 peptide fluorescence polarization, 2 h; active means well fitted inhibition curve with a large enough effect; inconclusive means small, poorly fitted or top-dose-only effect, or another doubt; inactive means no such curve, though single readings can be large or run the other way; further: series mostly up to about 120 µM
Target sequence (P11473 whole entry, looked up): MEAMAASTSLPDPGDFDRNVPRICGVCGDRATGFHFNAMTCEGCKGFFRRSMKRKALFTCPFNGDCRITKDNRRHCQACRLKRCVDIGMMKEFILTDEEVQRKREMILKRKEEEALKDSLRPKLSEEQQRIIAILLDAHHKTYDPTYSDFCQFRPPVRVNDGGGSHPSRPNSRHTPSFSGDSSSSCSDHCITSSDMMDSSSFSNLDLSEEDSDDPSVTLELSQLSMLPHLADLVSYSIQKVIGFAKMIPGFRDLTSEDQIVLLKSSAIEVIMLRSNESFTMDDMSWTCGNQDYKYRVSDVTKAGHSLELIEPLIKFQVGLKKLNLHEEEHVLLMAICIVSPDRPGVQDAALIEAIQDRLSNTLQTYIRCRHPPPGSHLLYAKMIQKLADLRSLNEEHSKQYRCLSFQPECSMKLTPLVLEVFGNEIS
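Compounds are added to VDR with labelled SRC2-3 coactivator peptide and held 2 h at room temperature. Inhibition of the VDR–peptide interaction is then read as a change in fluorescence polarization.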
* marks the source's active call; other numbers are inactive results; ? = inconclusive; & = joins results of further samples; [ ] = remark or other dose. On the % scale 0 is the no-effect control and ±100 the full control effect; potency means the concentration at half of the fitted maximal effect. Only part of the results is shown. The share of hits here may be higher or lower than overall.

VDR inhibitor | SMILES
-1% | CCOC(=O)C/C(=N\Nc1ncnc2ccccc12)c1ccccc1
? | Cc1ccc(S(=O)(=O)N(C)CC(=O)OCC(=O)NC(=O)Nc2ccc3c(c2)OCCO3)cc1
0% | COC(=O)Cn1c(=NC(=O)c2ccc(S(=O)(=O)N3CCOCC3)cc2)sc2cc(S(N)(=O)=O)ccc21
13% | CCOc1ccc(NC(=O)CCC(=O)NNS(=O)(=O)c2ccccc2[N+](=O)[O-])cc1
-11% | CCOC(=O)C1=CN(Cc2cccc(F)c2)S(=O)(=O)N(C)C1c1cccc(OC)c1 (configuration not stated)
1% | O=C(O)c1nn(Cc2nc3ccccc3o2)c(=O)c2ccccc12
25% | CCOc1ccccc1NC(=O)CCN1CCN(S(=O)(=O)c2ccc(Br)cc2)CC1
-1% | COc1cc(C2C(C(=O)c3cccs3)=C(O)C(=O)N2Cc2ccco2)cc(OC)c1OC (configuration not stated)
-24% | COc1cc(OC)c(OC)cc1/C=N/n1c(COc2ccccc2)n[nH]c1=S
6% | CSc1nc(-c2ccccc2)nc(NC(C)=O)c1C(C)=O
1% | Cc1ccc(C)c(-c2nnc(NC(=O)C3=COCCO3)o2)c1
5% | COc1ccc(CC(=O)NCC2(c3ccc(OC)c(OC)c3)CCCC2)cc1
-1% | COc1cccc(NC(=O)C2CCCN(S(=O)(=O)c3cccc4nsnc34)C2)c1 (configuration not stated)
9% | COc1ccccc1NS(=O)(=O)c1cc(C)ccc1C
26%&-7% | COc1ccc(NC(=O)c2ccco2)cc1NC(=O)c1ccccc1[N+](=O)[O-]
-27% | COC(=O)[C@@]1(Cc2ccc(F)cc2)[C@H]2c3cc(C(=O)N4CCCC4)n(CCc4ccccn4)c3C[C@H]2CN1C(=O)c1ccccc1
? | CCC(CO)Oc1cc(NC(=O)c2ccc(OC)cc2)c2ncn(C(C)C)c2c1 (configuration not stated)
4% | COc1ccc(-n2nnnc2/C=C/Nc2cc(C(F)(F)F)ccc2OC)cc1
-6% | CCCCCn1c(N2CCC(C(N)=O)CC2)nc2c1c(=O)[nH]c(=O)n2C
-6% | CCOC(=O)/C(C(C)=O)=C1/OC(=O)c2ccccc21
-1% | COc1cc(C(=O)NC2CC3CCCC(C2)N3Cc2ccccc2)cc(OC)c1OC (configuration not stated)
-5% | C[C@H](CC[C@@H]1OC1(C)C)C1CC[C@H]2[C@@H]3CC=C4C[C@@H](O)CC[C@]4(C)[C@H]3CC[C@]12C (some centres not stated)
-23% | CCO[C@H]1OC(C(=O)N2CCN(Cc3ccccc3)CC2)=C[C@@H](c2coc3ccccc3c2=O)[C@@H]1CCCO
-8% | Cc1ccc(O)c2ncccc12
-11% | COc1ccccc1NC(=O)Cn1c(=O)n(CCc2ccccc2)c(=O)c2c3c(sc21)CN(C(C)=O)CC3

Next structures
VDR inhibitor | SMILES
5% | CCN(Cc1ccccc1)C(=O)CCc1nc(CN2CCN(C(=O)c3ccc([N+](=O)[O-])cc3)CC2)no1
3% | Cc1ccc(C(=O)c2ccccc2C(=O)O)c(O)c1
-4% | COc1ccc(C2=NN(C(=O)CSc3nc4ccccc4s3)C(c3ccc(OC)cc3)C2)cc1 (configuration not stated)
15% | Cc1cc(C)c(C#N)c(SCC(=O)OC2CCCCC2)n1
1% | NC(=O)C1CCN(C(=O)c2ccc(NS(=O)(=O)c3ccc(F)c(F)c3)cc2)CC1
7% | Cn1c(SCC(=O)N2CCc3ccccc32)nnc1-c1ccc(S(=O)(=O)N2CCCC2)cc1
2% | O=C(c1ccc2nc3ccc(Cl)cc3c(=O)n2c1)N1CCOCC1
-14% | COc1ccc(NC(=O)c2cc3c([nH]c4ccccc43)c(C)n2)cc1
33%[activator] | COc1ccc(/C=N/Nc2nc(Nc3ccccc3)nc(N3CCCC3)n2)cc1[N+](=O)[O-]
19% | COc1ccc(N2CCN(C(=O)CN3C(=O)COc4ccccc43)CC2)cc1
-11% | COc1cccc(OCc2ccc(C(=O)NCC3CCCO3)cc2)c1 (configuration not stated)
-6% | O=C(c1ccsc1)N1CCCC(N2CCN(c3cccc(C(F)(F)F)c3)CC2)C1 (configuration not stated)
5% | CC(=O)c1sc(NC(=O)CS(=O)(=O)c2ccccc2)nc1-c1ccccc1
-6% | CC(C)c1cccc(-c2ccc3c(c2)S(=O)(=O)c2cccc(C(=O)O)c2C3=O)c1
-15% | O=C(Nc1ccccc1)c1nc[nH]c1C(=O)NCCN(CCNC(=O)c1[nH]cnc1C(=O)Nc1ccccc1)CCNC(=O)c1[nH]cnc1C(=O)Nc1ccccc1
-21% | O=C(N/N=C/c1ccccc1OCc1ccccc1)c1cccs1
9% | CCN(CC)S(=O)(=O)c1ccc(C(=O)NC2CC(=O)N(c3ccc(OC)c(OC)c3)C2)cc1 (configuration not stated)
-4% | Cc1nc(NC(=O)CSc2ccccc2N)sc1C
11% | CCOc1ccc(Nc2cc(C)nc(-n3nc(C)cc3C)n2)cc1
13% | Cn1cccc1C(C#N)c1ccccc1C#N (configuration not stated)
-4% | O=C(Nc1cccc(Oc2ccc3c(c2)C(=O)NC3=O)c1)c1cccs1
-2% | O=C(NC1=NCCS1)C1CC(=O)N(c2ccc(F)cc2)C1 (configuration not stated)
? | CCNC(=O)C1CCCN1C(=O)C(CCCN=C(N)N)NC(=O)C(CC(C)C)NC(=O)C(Cc1cn(Cc2ccccc2)cn1)NC(=O)C(Cc1ccc(O)cc1)NC(=O)C(CO)NC(=O)C(Cc1c[nH]c2ccccc12)NC(=O)C(Cc1cnc[nH]1)NC(=O)C1CCC(=O)N1 (configuration not stated)
3% | CCOC(=O)C1=C(C)N(C[C@@H]2CC[C@@H](Cc3ccc(-c4ccccc4)cc3)O2)C(=O)NC1c1ccc(C(F)(F)F)cc1 (some centres not stated)
13% | Clc1cccc(Cl)c1CSc1nnc([C@@H]2CCCN2)o1

The list goes on:
VDR inhibitor | SMILES
6% | O=C(CN1C(=O)COc2ccc(S(=O)(=O)N3CCOCC3)cc21)NCc1ccc(Cl)cc1
0% | CC(=O)c1ccc2c(c1)c1ccccc1n2CC(C)C
-1% | C1=C(c2ccccc2)Nc2nnnn2C1
0% | N/C(=N\OC(=O)c1ccccc1[N+](=O)[O-])c1ccccn1
-2% | Fc1ccc(CNn2cnnc2SCc2ccc(F)cc2)cc1
-21% | O=C(CN1CCOCC1)Nc1nc(-c2ccc(Cl)cc2)cs1
9% | C=CCN(c1ccc(C(N)=O)cc1)S(C)(=O)=O
-7% | O=C(Cc1cccc2ccccc12)Nc1ccc2c(c1)C(=O)NC2=O
1% | C=CCN=C(NC#N)SCc1ccccc1Cl
-10% | COc1nnc(-c2ccc(C)c(S(=O)(=O)NC(C)C)c2)c2ccccc12
-4% | O=C(c1ccccc1)c1ccc[nH]1
-8% | CCN(C(=O)c1nn(-c2ccc(C)cc2)c(=O)c2c1c1ccccc1n2C)c1ccc(F)cc1
-9% | CCCCCCC(NC(=O)c1ccc(C)cc1)C(=O)O (configuration not stated)
-14% | Cn1c(Cn2c(=O)sc3ccccc32)nnc1SCC(N)=O
-6% | Cc1ccc2nc(-c3ccncc3)cc(C(=O)NCc3ccccc3F)c2c1
-1% | Cc1ccc(S(=O)(=O)N(Cc2nc(-c3cccc(C)c3)no2)C2CCCCC2)cc1
-2% | CC(=O)N1CCN(C(=O)c2ccc(OC3CCN(Cc4ccccn4)CC3)cc2)CC1
24% | CCc1c(C)nc2ncnn2c1N1CCC(C(=O)Nc2ccccc2)CC1
-14% | COc1ccc(C(=O)NNC2CC(=O)N(Cc3ccc(Cl)cc3)C2=O)cc1OC (configuration not stated)
7% | COc1cccc(NC(=O)Nc2cc(C(=O)O)ccc2N2CC3CC(C2)c2cccc(=O)n2C3)c1 (configuration not stated)
-1% | Cc1nc2ccc(Cl)cc2c(-c2ccccc2F)c1CC(=O)O
1% | O=S(=O)(c1ccccc1F)N1CCN(CCOc2ccccc2)CC1
7% | Cc1ccc(C)c(Cn2c(=O)n(Cc3ccc(C(=O)NC4CCN(Cc5ccccc5)CC4)cc3)c(=O)c3ccccc32)c1
3% | O=C(CN1CCN(c2ccccn2)CC1)Nc1cccc(Br)c1
-8% | CC(C)C(=O)NC(=S)Nc1ccc(S(=O)(=O)Nc2nccs2)cc1

(further entries)
VDR inhibitor | SMILES
-16% | CN(C)C(=O)c1ccc(-c2nc(Nc3ccncc3)c3ccccc3n2)cc1
-14% | COc1ccc(CCN(C)C/C=C/c2ccccc2[N+](=O)[O-])cc1OC
0% | CC(C)[C@H](NC(=O)c1ccccc1F)C(=O)Nc1ccc(F)c(F)c1
-3% | COC(=O)[C@]1(Cc2ccccc2)N[C@H](c2ccc(-c3ccc(F)cc3)cc2)[C@@H]2C(=O)N(C)C(=O)[C@@H]21
-12% | N#Cc1ccccc1OCCOCCNC1CCCC1
-12% | CN(CC(=O)Nc1cccc(F)c1)CC(=O)Nc1cc(S(=O)(=O)N2CCOCC2)ccc1Cl
-16% | CCN(CC)c1ccc(C(=O)O)cc1
-9% | COC(=O)c1[nH]c2ccc(F)cc2c1NC(=O)CCN1CC(C)OC(C)C1 (configuration not stated)
-3% | CCOc1ccc(C(=O)NCC(=O)N2CCC(C)CC2)cc1OCC
-14% | O=C(Nc1ccc(Cl)c(Cl)c1)Nc1ccccc1NS(=O)(=O)c1cccs1
-2% | COC(=O)c1ccccc1NC(=O)CN1CCCCCC1
-15% | CC(OC(=O)Nc1cccc(Cl)c1)C(=O)O (configuration not stated)
-11% | COC(=O)[C@H](Cc1ccccc1)NCCCn1cnc(C(=O)Nc2ccc(C)c(C)c2)n1
-4% | Clc1ccccc1N=C1NN=C(c2cccs2)CS1
-2% | COc1ccc(CN2CCC(CO)(CCOc3ccccc3)CC2)cc1C
15% | CCN1CCN(CC(O)COc2ccc3c(c2)CCC3)CC1 (configuration not stated)
1% | CCC(CC)c1nnc(NC(=O)CCNC(=O)c2ccccc2Cl)s1
-8% | O=c1ccn(CCOc2ccc(Cl)cc2)c(=O)[nH]1
-1% | CC(C)(C)C1CCC(=NNC(=O)C(=O)NCc2ccco2)CC1 (configuration not stated)
-4% | CC1(c2nnc(-c3ccncc3)o2)CC(c2ccccc2)=NO1 (configuration not stated)
8% | COc1ccccc1CNC(=O)c1oc2ccc(S(=O)(=O)N3CCCC3)cc2c1C
6% | Cc1ccc(S(=O)(=O)N2CCOCC2)cc1NC(=O)CN1CCN(C)CC1
-1% | COc1ccc(-c2nc(-c3ccc(Br)cc3)no2)c(OC)c1
-6% | CC(Sc1nc(NCc2ccccc2)nc(N(C)C)n1)C(=O)Nc1ccccc1 (configuration not stated)
20% | O=C(NCC1CCCCC1)c1cccnc1Cl

At a glance, part of the list above:
VDR inhibitor | SMILES
-1% | CCOC(=O)C/C(=N\Nc1ncnc2ccccc12)c1ccccc1
? | Cc1ccc(S(=O)(=O)N(C)CC(=O)OCC(=O)NC(=O)Nc2ccc3c(c2)OCCO3)cc1
0% | COC(=O)Cn1c(=NC(=O)c2ccc(S(=O)(=O)N3CCOCC3)cc2)sc2cc(S(N)(=O)=O)ccc21

Laid out differently: entries from further up
CCC(CC)c1nnc(NC(=O)CCNC(=O)c2ccccc2Cl)s1
  VDR inhibitor: 1%
Cc1ccc(S(=O)(=O)N2CCOCC2)cc1NC(=O)CN1CCN(C)CC1
  VDR inhibitor: 6%

Carrying on:
VDR inhibitor | SMILES
-17% | CCCC(=O)N(c1ccc2oc(C)c(C(C)=O)c2c1)S(=O)(=O)c1ccc(C)c([N+](=O)[O-])c1
-14% | O=C(CSc1ccccc1)Nc1ccc2c(c1)C(=O)NC2=O
21% | Oc1cccc(-c2nnc(-c3cccc(O)c3)nn2)c1
-25% | CCOP(=O)(OCC)/C(C#N)=C/c1cc(OC)ccc1OC
? | CCCC(=O)Nc1ccc2nn(-c3ccc(OC)cc3)nc2c1
-21% | O=C(CCc1nc(-c2ccccc2)no1)Nc1cccnc1
-5% | NC(=O)c1nsc(C(=O)N(Cc2ccc(F)cc2)C(C(=O)NC2CCCC2)c2ccco2)c1N (configuration not stated)
3% | CCCNS(=O)(=O)c1ccc(NC(=O)c2ccccn2)cc1
-12% | O=C(CC1Sc2ccccc2NC1=O)c1ccc(Br)cc1 (configuration not stated)
-7% | COc1ccc2c(c1)C(SCC(=O)NCc1ccccc1)CC(C)(C)O2 (configuration not stated)
? | CCOC(=O)c1ccc(NC(=O)Cn2c(-c3nonc3N)nc3ccccc32)cc1
10% | COc1ccc(NC(=S)N2CCN(S(=O)(=O)c3ccc(F)cc3)CC2)cc1
-23% | O=C1c2ccccc2C(Nc2cccnc2)N1Cc1ccccc1 (configuration not stated)
-11% | CCOC(=O)CCc1nn(C)c(=O)c2ccccc12
3% | CCn1c(SCC(=O)Nc2sc(C)c(C)c2C#N)nnc1C(C)C
7% | Cc1ccccc1NC(=O)NCCCN1CCN(C2CCCCC2)CC1

Given tab-delimited: four of the compounds above.
SMILES	VDR inhibitor
O=C(CN1CCOCC1)Nc1nc(-c2ccc(Cl)cc2)cs1	-21%
CN(CC(=O)Nc1cccc(F)c1)CC(=O)Nc1cc(S(=O)(=O)N2CCOCC2)ccc1Cl	-12%
CCCCCn1c(N2CCC(C(N)=O)CC2)nc2c1c(=O)[nH]c(=O)n2C	-6%
COC(=O)[C@]1(Cc2ccccc2)N[C@H](c2ccc(-c3ccc(F)cc3)cc2)[C@@H]2C(=O)N(C)C(=O)[C@@H]21	-3%
